# Bioassay records deposited in PubChem by Fisher Drug Discovery Resource Center.
# NPYLR7 agonist: agonists of mosquito NPYLR7 receptor, primary screen, cell-based, Aedes aegypti, calcium fluorescence, mosquito biting behavior. HEK293T NPYLR7/Galpha15, GCaMP6s calcium fluorescence. activation, % at 10 µM. AID 1259423, 2018. Aedes aegypti neuropeptide Y-like receptor 7 (NPYLR7). 270,000 tested, 0.15% active; in the data active = activation above about 40%;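 also: 0% = vehicle and 100% = reference agonist at the receptor; some compounds past the cut are filed as inactive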
# NPYLR7 agonist max-min: second read-out of NPYLR7 agonist, no call of its own (marks repeat the call); activation, %; measured here: Max-Min RFU normalised activation; some inactives read as strong as hits;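 span of the calcium signal over five minutes; 0% = vehicle and 100% = native peptide agonist; compound fluorescence can raise it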
# Active calls of the source: *; & = joins results of further samples.
# Every second line gives: NPYLR7 agonist | NPYLR7 agonist max-min
Cc1c(NCC#Cc2ccc(Cl)cc2)cccc1C(N)=O
    6.0 | 5.5
COCC(Br)=C=CCN(C)C
    23.2 | 1.1
CC(c1cccc(-c2c(-c3ccccc3)ncn2Cc2ncc[nH]2)c1)N(C)C (centres undefined)
    -0.2 | -2.9
CC(C)c1nc(CNC(=O)c2coc(COc3ccccc3F)n2)cs1
    5.1 | 0.5
COCCN(Cc1nc(C(=O)N2CCN(Cc3ccccc3)CC2)cs1)C(=O)Nc1ccc(OC)cc1
    -13.0 | -10.8
COc1ccc(NS(=O)(=O)c2ccc(S(N)(=O)=O)cc2)c(OC)c1
    11.2 | 5.3
O=[N+]([O-])c1ccc2c(c1)CCN2Cc1cc2c(cc1Br)OCO2
    -0.4 | 3.2
CC(C)=CCn1ccc2c1CCCC2C(=O)NCc1ccc(F)cc1F (centres undefined)
    21.6 | 9.4
COc1ccc2[nH]c(C(=O)NCc3cccnc3-n3ccnc3)c(C)c2c1
    2.4 | -2.2
CC(=O)C1=C(C)N=C(SCC(N)=O)C(C#N)C1c1ccco1 (centres undefined)
    -1.6 | -5.3
CCCCN(CC(=O)Nc1cc(C(C)(C)C)nn1-c1ccc(Cl)cc1)C(=O)Nc1ccc(F)c(F)c1
    -1.3 | -1.3
CC(C)Cc1nc(CN(C)Cc2ccc3c(c2)CCO3)no1
    1.0 | -0.1
Cc1nc2c(C)cccn2c(=O)c1NC(=O)Nc1cc(Cl)cc(Cl)c1
    -1.7 | -1.9
CN(C)c1ccc(CN(C)S(=O)(=O)c2c(Cl)cc(Cl)cc2Cl)cc1
    1.2 | 2.2
CN(C)C(CNC(=O)c1ccc2c(c1)OCCO2)c1ccco1 (centres undefined)
    -1.5 | -3.4
CCCCCc1ccc(C(=O)N(CCOC)Cc2cccc(OS(C)(=O)=O)c2)cc1
    17.5 | 23.1
c1ccc(Cc2nn3cc(-c4ccccc4)c4c3n2CCCC4)cc1
    -11.7 | -13.8
Cc1cc(C)n(-c2cc(N3CCN(S(=O)(=O)c4cccs4)CC3)nc(C)n2)n1
    -5.0 | -9.9
COCCCNCc1cnc(SC)nc1N(C)C1CCCCC1
    2.1 | 3.5
Cc1cc(C)nc(CN2CCOC(c3ccc(Cl)c(Cl)c3)C2)n1 (centres undefined)
    -1.8 | -1.8

# Seven of the compounds above, tab-delimited:
smiles	NPYLR7 agonist	NPYLR7 agonist max-min
COc1ccc(NS(=O)(=O)c2ccc(S(N)(=O)=O)cc2)c(OC)c1	11.2	5.3
O=[N+]([O-])c1ccc2c(c1)CCN2Cc1cc2c(cc1Br)OCO2	-0.4	3.2
CC(C)=CCn1ccc2c1CCCC2C(=O)NCc1ccc(F)cc1F (centres undefined)	21.6	9.4
COc1ccc2[nH]c(C(=O)NCc3cccnc3-n3ccnc3)c(C)c2c1	2.4	-2.2
CC(=O)C1=C(C)N=C(SCC(N)=O)C(C#N)C1c1ccco1 (centres undefined)	-1.6	-5.3
CCCCN(CC(=O)Nc1cc(C(C)(C)C)nn1-c1ccc(Cl)cc1)C(=O)Nc1ccc(F)c(F)c1	-1.3	-1.3
CC(C)Cc1nc(CN(C)Cc2ccc3c(c2)CCO3)no1	1.0	-0.1

# (continued)
# Every second line gives: NPYLR7 agonist | NPYLR7 agonist max-min
O=C(NC1CC1)C1COC2(CCCCC2)N1C(=O)c1cccc([N+](=O)[O-])c1 (centres undefined)
    -3.7 | 7.6
COc1ccccc1N(CCC(N)=O)C(=O)CN1CCCC1c1ccsc1 (centres undefined)
    15.8 | 13.7
COc1ccccc1C(=O)C1CCCN(C(=O)c2ccc3c(c2)OCCO3)C1 (centres undefined)
    20.5&3.6 | 23.5&1.1
Cc1cccc(S(=O)(=O)NC(=O)C2(C)CCN2C(=O)c2ccccc2CCc2ccccc2)c1 (centres undefined)
    0.3 | -1.1
O=C(NCc1ccc(Cn2cccn2)cc1)NCc1ccco1
    9.3 | 9.0
N#Cc1ccc(NC(=O)N2CCSC2c2cccc(Oc3ccccc3)c2)cc1 (centres undefined)
    -3.0 | 4.0
COc1ccc(CNC(=O)N2CCN(C(c3ccccc3)c3ccc(Cl)cc3)CC2)cc1 (centres undefined)
    17.1 | 21.8
O=C(NCCCn1nc(-c2cccnc2)ccc1=O)c1ccc(F)cc1F
    10.0 | 2.1
Cc1nn(-c2ccccc2)c(Oc2ccccc2Cl)c1CN(CC(O)CN1CCOCC1)CC1CC1 (centres undefined)
    8.6 | 6.6
Cc1ccc(C)c(-n2c(N)c(C(=O)NCc3ccccc3)sc2=S)c1
    7.6 | -5.4
O=C(CCc1ccc2ccccc2c1)N1CCCC1c1ccc(O)cc1 (centres undefined)
    1.1 | 6.8
COc1cccc(C(CN2CCN(S(=O)(=O)c3ccccc3C(F)(F)F)CC2)OCc2cccc(Cl)c2)c1 (centres undefined)
    -2.7 | -4.5
COCCNC(=O)C1(C)CCCN(Cc2cc(-c3ccccc3)nn2C)C1 (centres undefined)
    0.4 | -2.4
CC(=O)N1CCc2c(sc(NC(=O)C(C)(C)C)c2-c2nc3ccccc3s2)C1
    -2.0 | -4.1
CC(C)CC1NC(=O)N(CC(=O)NC2CCCCC2)C1=O (centres undefined)
    -2.2 | 0.2
Cn1cc(NC(=O)c2ccccn2)cn1
    5.5 | 6.9
C=C(Br)Cn1c(=O)n(CC(=C)Br)c2ccccc21
    -0.1 | 1.0
CCOC(=O)C1CCN(C(=O)c2ccc(CSc3nc(Cl)cc(N4CCCCC4)n3)cc2)CC1
    2.4 | 2.9
COc1ccc(-n2c(SCc3ccc(C(=O)NCc4ccco4)cc3)nnc2-c2ccccc2Cl)cc1
    3.5 | 13.8
Fc1ccccc1COc1ccccc1CNc1nn[nH]n1
    -6.9 | -6.9
Cc1cc(NCc2ccc(Cl)cc2)n(C2CCS(=O)(=O)C2)n1 (centres undefined)
    5.4&0.7 | 0.7&-1.1
Cc1sc2nc(C)n(CCO)c(=O)c2c1C
    2.5 | -2.2
Cc1nn(C)c(C)c1-c1ccnc(NCC(c2ccncc2)N2CCOCC2)n1 (centres undefined)
    4.6 | 2.1
COc1ccc(CCc2nnc(CCC(=O)NCc3ccc(C)o3)o2)cc1
    0.2 | -1.2
COc1ccc(N)cc1-n1c(C)ccc1C
    -8.9 | -14.8
CO/N=C(/C(=O)NC(c1ccccc1)c1ccccc1)c1csc(NC=O)n1
    -4.9 | -11.5
COc1ccccc1C(=O)N1CCOC(CCN(C)C)C1 (centres undefined)
    1.3 | -2.2
COc1ccc(Cl)cc1NC(=O)c1cc(S(=O)(=O)NCCC2=CCCCC2)ccc1F
    -0.5 | -1.2
Cc1cc(C)nc(NS(=O)(=O)c2ccc(Br)s2)c1
    6.0 | 1.7
CC1CN(c2nc(-c3ccccc3)nc3c2CN(C(=O)CCl)CC3)CC(C)O1 (centres undefined)
    -9.6 | -6.9
O=C(CN1CCN(C(=O)CCc2ccccc2O)CC1)Nc1ccccc1C(F)(F)F
    6.7 | 4.9
COc1ccc(C(C)NC(=O)C2CCN(CCOc3ccccc3)CC2)cc1OC (centres undefined)
    14.2 | 1.1
Cc1cccc(Cn2cccc2CN(Cc2ccc(C#N)cc2)CC(C)C)c1
    -1.1 | 9.0
CC(C)Cc1cc(C(=O)N2CCC3(CCCO3)CC2)on1
    9.7 | 6.0
COc1ccc(OC)c(NC(=O)CSc2ccc3nnc(-c4ccc(C)cc4)n3n2)c1
    11.4 | 14.2
CCC(=O)NCC1CN(c2ccc(OC)cc2)C(=O)O1 (centres undefined)
    3.9 | 3.0
CNS(=O)(=O)C1CCN(C(=O)c2ccc3ccccc3c2)CC1
    2.6 | 0.8
CCc1nc2c(OCC(=O)c3ccc(Cl)cc3Cl)cccn2c1N(C)C(=O)c1ccncc1
    -16.3 | -18.1
CC1(C)CC(c2nccn2CCCOc2cccnc2)CCO1 (centres undefined)
    -0.1 | -4.3
Brc1ccc(CSc2nn3cnnc3s2)cc1
    2.5 | -0.2
C#CCNC(=O)N1CCN(c2ncc(Br)cn2)CC1
    12.5 | 9.1
CC(=NNc1nnc(C)c(=O)[nH]1)c1ccncc1
    0.5 | 17.1
CCOC(=O)c1cnc(-c2ccc(OC)c(OC)c2)nc1NCCc1cccs1
    1.2 | -6.1
CCOc1ccccc1N(CCN1C(=O)c2ccccc2C1=O)C(=O)c1ccccc1OC
    0.3 | -7.4
Cc1cc(C(C)NC(=O)Cn2c(C)csc2=O)c(C)s1 (centres undefined)
    -1.8 | -2.2
c1ccc(OCc2noc(CN3CCCN(c4nc5ccccc5s4)CC3)n2)cc1
    12.9 | 0.4
Cc1cc(C(C)(C)C)cc(S(=O)(=O)NCCC(=O)O)c1C
    -2.7 | -2.4
COc1ccc(N2C(=O)CCS2(=O)=O)cc1S(=O)(=O)N(C)CCc1ccncc1
    3.1 | 0.9
O=S1(=O)C[C@@H](O)[C@H](n2cnnc2)C1
    -2.0&-0.2 | -1.3&-0.3
COc1ccc(/C=N\Nc2nc(N3CCOCC3)nc(N3CCOCC3)n2)cc1OC
    -6.2 | -15.0
CCc1ccc(-n2c(C(C)N(CCOC)C(=O)COc3ccc(Cl)cc3)nc3ccccc3c2=O)cc1 (centres undefined)
    -5.9 | 2.2
O=C(Nc1nn2cc(-c3ccccc3)nc2s1)c1cccc(Br)c1
    0.3 | -0.8
CCOCCNC(=O)CSc1nc2cc(C(=O)OCC)ccc2n1CCc1ccc(OC)cc1
    11.0 | 16.5
Cc1cccc(CSc2nc(C)cc(Oc3ccc4c(c3)OCO4)n2)c1
    -11.1 | -10.2
Fc1cccc(Cl)c1-c1nnc2ccc(C(F)(F)F)cn12
    5.7 | 5.2
Cc1ccc(-c2nc3ccccc3c(=O)o2)cc1
    -5.3 | -7.9
c1nc(NCC2CCCCC2)c2c3c(sc2n1)CCC3
    -2.7 | -0.5
Cc1cc(C(=O)NN2C(=O)CSC2c2ccc(-n3ccnc3)cc2)c(C)o1 (centres undefined)
    1.8 | 4.6
Cc1cc(NC(=O)c2c(O)c3ccccc3[nH]c2=O)c(=O)[nH]n1
    8.5 | 7.2
CCCSc1ncccc1C(=O)Nc1ccc(-c2onc3c2CCc2cc(OC)ccc2-3)cc1
    6.8 | 5.2

# Additional records follow:
# Every second line gives: NPYLR7 agonist | NPYLR7 agonist max-min
CCC1(C)NC(=S)N2N1C(=S)NC2(C)CC (centres undefined)
    -1.5 | -6.0
COc1ccccc1-n1ncc2c(C)nnc(SCC(=O)NCc3ccc(F)cc3)c21
    -8.6 | -14.4
CCCc1[nH]n(C)c(=O)c1C1=C(N2CCC(C)CC2)C(=O)N(c2ccccc2F)C1=O
    2.2 | 3.9
CN(C)S(=O)(=O)N1CCC2(CCCN(Cc3cccc(F)c3F)C2=O)C1 (centres undefined)
    0.0 | -1.6
CCOC(=O)c1ccc(CSc2nc3cc(S(=O)(=O)N4CCOCC4)ccc3n2CC2CCCO2)cc1 (centres undefined)
    5.9 | 3.2
CCOCCOC(C)C(=O)Nc1cnc2ccccc2n1 (centres undefined)
    -0.7 | -3.8
Cn1c(SC2CCCc3ccccc32)nnc1-c1ccco1 (centres undefined)
    6.7 | 6.0
CCCC(=O)NCc1nnnn1C1CCCCC1
    17.8 | 10.9
Cc1nc(SCC(=O)NN2C(=O)NC3(CCCCC3)C2=O)n(C2CCCCC2)c1C
    -1.4 | -3.1
CCOc1cccc2sc(N(CCN(C)C)C(=O)c3ccc(Br)s3)nc12
    1.3 | -0.8
N#CC(C#N)=Cc1cn(CCC(=O)O)nc1-c1cccc(Cl)c1
    0.6 | 0.9
Cc1cccnc1N1CCN(C(=O)[C@@]23CC[C@@](C)(OC2=O)C3(C)C)CC1
    12.6 | 5.4
Cc1cc(C)n2c(=S)n(CN3CCOC(C)C3)nc2n1 (centres undefined)
    1.1 | 5.2
O=C(Nc1ccccc1-c1ccc2ncccc2c1)C1CC1
    1.2 | -2.6
N#CC1C(=N)C(C#N)(C#N)C2(CCC3(CC2)OCCO3)C2CC3(CC=C12)OCCO3 (centres undefined)
    6.6 | 8.3
OCCn1ncc2c1CN(c1nc(-c3ccccc3)nc3c1CCC3)C2
    -3.4 | -10.2
COc1cccnc1C(=O)N1CCN(C2CCCCC2)C(=O)C1
    3.3 | -0.6
CCOc1ccc(Oc2cc(NC(=O)c3cnn4c(C(F)(F)F)cc(-c5ccc(Br)cc5)nc34)cc([N+](=O)[O-])c2)cc1
    9.5 | 12.8
CC12CC3CC(C)(C1)CC(C(=O)NN=Cc1cccc([N+](=O)[O-])c1)(C3)C2
    -4.4 | -10.6
CNc1ncc(C(F)(F)F)cc1Cl
    4.4 | 17.4
CC(=O)[C@@H]1SC(=N)C(C#N)[C@H]1c1cccs1 (some centres undefined)
    -4.9 | -3.6
C=CCNC(=O)c1ccccc1N1CCC(NC(=O)c2cccs2)CC1
    -5.1 | 2.7
O=C1NC(=S)S/C1=C\c1cccc(OCCOc2ccc(C3CCCCC3)cc2)c1
    3.9 | 10.5
CC1Cc2ccccc2N(C(=O)C2CCCN2C(=O)C2CC2)C1 (centres undefined)
    -1.4 | -7.6
Cc1nnc2sc(COc3ccc(Cl)cc3Cl)nn2c1=O
    8.3 | 8.4
CN(CC(=O)NCC(=O)Nc1ccc(F)c(F)c1)S(=O)(=O)c1ccc2ccccc2c1
    0.9 | 7.1
Cc1nc(SCC(=O)c2cccs2)c(C#N)c(C)c1C
    -1.5 | -8.6
COC(=O)c1c(C)c(C(=O)CN(CC2CCCO2)C(=O)NC2CCCCC2)c(C)n1C (centres undefined)
    -3.9 | 8.0
Clc1ccc(OCc2nnc3n2CCCCC3)c(Cl)c1
    1.1 | 0.4
COC(=O)c1sc(C)cc1NC(C)=O
    5.9 | 4.3
O=S(=O)(c1cccc(C(F)(F)F)c1)N1CCC(c2cn(Cc3cccc(F)c3)c3ccccc23)CC1
    4.7 | 3.0
O=S(=O)(c1ccc(F)c(Cl)c1)N1CCN(CC(OCc2c(F)cccc2F)c2ccc(Cl)cc2)CC1 (centres undefined)
    25.1 | 14.5
CC(C)Oc1cc(N2CC[C@@H](O)C2)nc(N)n1
    16.7 | 11.6

# The list is partial, so the mix of outcomes need not match the whole.
